GIRK2 activ – opens human GIRK2 potassium channels | P48051 | HEK293-GIRK2 thallium flux, Thallos fluorescence | calls only for hits at 25 µM | hit rate 0.05% among 63,000 | AID 1259325;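 active = among the strongest 0.2% of first-round signals and kept after retests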;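 also: first round at about 10 µM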
Target sequence (P48051 whole entry, looked up): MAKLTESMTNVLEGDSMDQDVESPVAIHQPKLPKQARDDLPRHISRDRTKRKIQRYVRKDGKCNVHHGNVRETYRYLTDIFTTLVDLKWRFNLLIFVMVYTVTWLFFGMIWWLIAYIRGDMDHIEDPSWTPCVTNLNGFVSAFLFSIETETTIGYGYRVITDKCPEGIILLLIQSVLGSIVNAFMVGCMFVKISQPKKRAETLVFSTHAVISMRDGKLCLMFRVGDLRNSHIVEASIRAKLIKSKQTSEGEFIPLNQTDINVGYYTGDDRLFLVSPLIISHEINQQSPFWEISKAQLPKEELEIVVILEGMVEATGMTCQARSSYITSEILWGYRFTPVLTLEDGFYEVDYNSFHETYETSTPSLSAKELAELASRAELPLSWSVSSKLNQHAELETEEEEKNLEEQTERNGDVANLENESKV
Calls only; i = inactive.

Compound	GIRK2 activ
COc1cc(OC)cc(C(=O)NCCN2CCN(c3ccc(Cl)cc3)CC2)c1	i
COc1cc(NC(=O)Cn2ccn(-c3ccc(C)c(C)c3)c(=O)c2=O)cc(OC)c1	i
O=C(Nc1ccccc1C(F)(F)F)c1cc([N+](=O)[O-])cc([N+](=O)[O-])c1	i
COC(=O)CSc1nc2c(c(=O)n(C)c(=O)n2C)n1CC(O)COc1ccccc1C (centres undefined)	i
CC1CCN(S(=O)(=O)c2cccn(CC(=O)NCCC3=CCCCC3)c2=O)CC1	i
C=C(CC[C@@H](C)[C@H]1CC=C2C3=C([C@@H](O)[C@H](OC(C)=O)[C@@]21C)[C@@]1(C)C[C@@H](O)[C@H](OS(=O)(=O)O)C(C)(C)[C@@H]1CC3)C(C)C	i
CCOc1ccc(CCNC(=O)Cn2cnc3c(oc4ccccc43)c2=O)cc1OCC	i
CCCCCCCCCCCCCCCCOCC(O)COP(=O)(O)O (centres undefined)	i
COc1ccccc1CCNC(=O)C(=O)NCCC1CCCCN1S(=O)(=O)c1ccccc1 (centres undefined)	i
O=C1CCCC(=O)N1CCS(=O)(=O)NCC1(c2ccccc2)CCOCC1	i
Cc1ccc(NC(=O)Cn2c(C)nc(-c3ccccn3)cc2=O)c(Br)c1	i
CC1CN(S(=O)(=O)c2ccc(Cl)cc2)CCN1S(=O)(=O)c1ccc(Cl)cc1 (centres undefined)	i
COC(=O)C1CCN(c2ccnc3c2c(=O)n(C)c(=O)n3C)CC1	i
COc1ccccc1C1NC(=S)NC(C)=C1C(=O)Nc1ccc(C)c(C)c1 (centres undefined)	i
CCc1nnc2sc(-c3cc(C)nc4ccc(Cl)cc34)nn12	i
O=C(NCC1CCN(C(=O)COc2ccccc2)CC1)NC1CCCCCC1	i
O=C(NCC#CCN1CCCCC1)c1ccc(Cn2ccnc2)cc1	i
N#Cc1nc(-c2ccc(Cl)cc2)oc1N1CCN(C(=O)c2ccc(F)cc2)CC1	i
Clc1ccc2c(c1)C=C(c1nnc(-c3cccnc3)o1)C=CO2	i
CN(C)CCNc1oc(-c2ccc(S(=O)(=O)N(C)C)cc2)nc1C#N	i

Seven entries out of the list, ordered by count of non-hydrogen atoms, highest first:
Compound	GIRK2 activ
COc1ccccc1CCNC(=O)C(=O)NCCC1CCCCN1S(=O)(=O)c1ccccc1 (centres undefined)	i
COc1cc(NC(=O)Cn2ccn(-c3ccc(C)c(C)c3)c(=O)c2=O)cc(OC)c1	i
COc1cc(OC)cc(C(=O)NCCN2CCN(c3ccc(Cl)cc3)CC2)c1	i
CC1CN(S(=O)(=O)c2ccc(Cl)cc2)CCN1S(=O)(=O)c1ccc(Cl)cc1 (centres undefined)	i
Cc1ccc(NC(=O)Cn2c(C)nc(-c3ccccn3)cc2=O)c(Br)c1	i
CN(C)CCNc1oc(-c2ccc(S(=O)(=O)N(C)C)cc2)nc1C#N	i
COC(=O)C1CCN(c2ccnc3c2c(=O)n(C)c(=O)n3C)CC1	i

(more compounds)
Compound	GIRK2 activ
O=C(Nc1ccc2c(=O)c3cccc(F)c3oc2c1)c1ccc([N+](=O)[O-])cc1	i
COc1ccc(CCn2cccc(-c3nc(C4CC4)no3)c2=O)cc1	i
C=C(C)Cn1c(=O)c2c(nc3n(C(C)c4ccccc4)c(C)cn23)n(C)c1=O (centres undefined)	i
CCc1nnc(C2CCN(C(=O)NC(C)(C)C)CC2)s1	i
O=C(Nc1ccccc1)Nc1cc(N2CCCC2)ncn1	i
COc1ccccc1N1CC(C)Cn2c1nc1c2c(=O)n(C)c(=O)n1C (centres undefined)	i
Cc1cccc(N2CCN(S(=O)(=O)CCCNC(=O)COc3ccc(F)cc3)CC2)c1	i
O=c1c(-c2ccccc2)coc2c3c(ccc12)OCN(C1CCS(=O)(=O)C1)C3 (centres undefined)	i
O=C(c1cc(-c2ccco2)[nH]n1)N1CCC(c2nnc(C3CC3)o2)CC1	i
Cc1ccc(C(=O)NC2CCN(C(=O)c3cc(-c4cccs4)[nH]n3)CC2)cc1C	i
COc1cccc2sc(N(C)CC(=O)Nc3cccnc3)nc12	i
CCN1C(=O)CCc2cc(NC(=O)c3ccc4c(c3)OCO4)ccc21	i
COc1cc(OC)cc(N2C(=O)C3N=NN(Cc4nc(-c5ccc(OC(C)C)cc5)no4)C3C2=O)c1 (centres undefined)	i
CCN(CC)C(=O)Oc1ccc2c(=O)c(Oc3cccc(OC)c3)c(C)oc2c1	i
COC(=O)c1ccc(C2c3c(oc4ccccc4c3=O)C(=O)N2CCCN(C)C)cc1 (centres undefined)	i
CCCn1c(SCC(=O)Nc2cccc(F)c2)nc2c3cc(OC)ccc3n(C)c2c1=O	i
COc1ccc(OC)c(COCC(O)CSc2ccccn2)c1 (centres undefined)	i
COc1ccc(C(O)=C2C(=O)C(=O)N(c3cc(C)on3)C2c2ccc(C)cc2)cc1OC (centres undefined)	i
O=C(COc1ccc(Cl)cc1Cl)NCCn1ncccc1=O	i
CC(C)(Oc1ccc(Cl)cc1)C(=O)NCC1(CO)CC1	i
Fc1ccc(Nc2nc(NCc3ccc4c(c3)OCO4)nc3n[nH]nc23)cc1	i
COc1ccc(C(=O)/C=C/c2ccc(OC)cc2OC)cc1	i
Cn1cc(-c2ccco2)nc1CCNS(=O)(=O)c1ccc(F)c(Cl)c1	i
CCC1CCCCN1S(=O)(=O)c1cc(Br)ccc1OC (centres undefined)	i
Cc1cc(C)n(CCNC(=O)c2coc(NC(=O)Cc3cccs3)n2)n1	i
NC(=O)C1CCN(CCOc2ccc3c(=O)c(-c4ccccc4)coc3c2)CC1	i
CCc1ccc(NC(=O)Cn2cnc3c([nH]c4ccc(C)cc43)c2=O)cc1	i
O=S(=O)(c1ccc(Cl)c(C(F)(F)F)c1)N1CCN(c2ccccc2F)CC1	i
O=C(c1ccc(Cn2c(=O)[nH]c3ccccc3c2=O)cc1)N1CCN(c2ccccc2)CC1	i
CC(C)c1ccc(NC(=O)Cn2cccc(S(=O)(=O)N3CCCC3)c2=O)cc1	i
COC(=O)c1ccc(S(=O)(=O)NCC2CCN(C(=O)/C=C/c3ccco3)CC2)cc1	i
O=C(NCc1ccccc1)Nc1ccc2c(c1)CCCN2C(=O)c1ccccc1	i
O=C(NCc1cccs1)C(=O)Nc1ccccc1[N+](=O)[O-]	i
Cc1noc(C2CC(=O)N(c3ccc(C)c(Cl)c3)C2)n1 (centres undefined)	i
COc1ccc(-c2cc(C(=O)Nc3ccc(Cl)cn3)no2)cc1	i
Cc1ccc(=O)n(C(C)C(=O)Nc2nc3ccccc3[nH]2)n1 (centres undefined)	i
COc1ccc(C)cc1NC(=O)C(=O)NCCN1CCN(c2ccccc2F)CC1	i
O=C(CSc1ccc(F)cc1)NCCn1nc(C2CC2)n(-c2ccccc2)c1=O	i
Cc1cc(NC(=O)CN2CCc3nc(NC(=O)c4cccs4)sc3C2)no1	i
Cc1ccc2nc(NC(=O)CCc3csc(NC(=O)c4ccc(=O)[nH]c4)n3)sc2c1	i
CCOc1ccc(-c2nc(Cn3nnc(C(=O)Nc4cc(C)cc(C)c4)c3N)c(C)o2)cc1	i
COc1ccc(S(=O)(=O)Nc2ccc(S(=O)(=O)Nc3nc(OC)cc(OC)n3)cc2)cc1	i
CCOC(=O)COc1ccc2c(c1)O/C(=C\c1cc(Br)cc3c1OCOC3)C2=O	i
Cc1ccc(CNC(=O)CN2C(=O)C3(SCC(=O)N3c3ccc(F)cc3)c3ccccc32)cc1 (centres undefined)	i
COc1ncc(NC(=O)c2cnccn2)cn1	i
COCCn1c(=O)c2c(nc3n(-c4ccccc4F)c(C)c(C)n23)n(C)c1=O	i
O=S(=O)(Nc1cnc(N2CCN(c3ccccc3)CC2)nc1)c1cccc(Cl)c1	i
Cc1ccc(-c2ccc3nn(CC(=O)NCc4ccc(Cl)cc4)c(=O)n3n2)cc1C	i
Cc1cccc(C)c1N1CC(c2nc(-c3ccccc3Cl)no2)CC1=O (centres undefined)	i
Cc1ccc(S(=O)(=O)CC(=O)N(CCN2CCOCC2)c2nc3c(Cl)cccc3s2)cc1	i

Retrieved by structure from the entries so far, 5 records:
Compound	GIRK2 activ
Cc1ccc(CNC(=O)CN2C(=O)C3(SCC(=O)N3c3ccc(F)cc3)c3ccccc32)cc1 (centres undefined)	i
Cc1ccc(-c2ccc3nn(CC(=O)NCc4ccc(Cl)cc4)c(=O)n3n2)cc1C	i
Cc1ccc(S(=O)(=O)CC(=O)N(CCN2CCOCC2)c2nc3c(Cl)cccc3s2)cc1	i
O=S(=O)(Nc1cnc(N2CCN(c3ccccc3)CC2)nc1)c1cccc(Cl)c1	i
COc1ccc(S(=O)(=O)Nc2ccc(S(=O)(=O)Nc3nc(OC)cc(OC)n3)cc2)cc1	i

The listing continues:
Compound	GIRK2 activ
C=CCN1CC(c2nc3ccccc3n2Cc2ccccc2F)CC1=O (centres undefined)	i
CCOCC(=O)N1CCN(Cc2csc(-c3ccccc3)n2)CC1	i
COc1ccccc1OCC(=O)Nc1ccc(-c2ccn[nH]2)cc1	i
Cn1c(=O)c2c(ncn2CC(=O)Nc2cccc(N3CCCS3(=O)=O)c2)n(C)c1=O	i
O=C(CCc1ccccc1)NCCOc1ccc(-c2ccccn2)nn1	i
CC(=O)Cn1c(=O)c2c(nc3n(-c4cccc(C)c4)c(C)cn23)n(C)c1=O	i
O=C(CCc1csc(NC(=O)Nc2ccccc2)n1)Nc1nc2ccccc2s1	i
CCOC(=O)C1CCCN(C(=O)C2CCN(c3ncnc4c3sc3ncccc34)CC2)C1 (centres undefined)	i
Cc1cc(C(=O)Nc2nc(C(=O)NCC3CCCO3)co2)no1 (centres undefined)	i
O=C(NC1CC(O)C(CO)C1)C1(c2ccc(Cl)cc2)CCCC1 (centres undefined)	i
CSc1ccccc1NC(=O)C(=O)NCC(O)(c1ccccc1)C(F)(F)F (centres undefined)	i
CC(C)c1ccc(N2C(=O)C3N=NN(CC(=O)Nc4ccc(F)cc4F)C3C2=O)cc1 (centres undefined)	i
Cc1cc(C)c(S(N)(=O)=O)c(C)c1N(C)S(=O)(=O)c1ccc(Cl)cc1	i
CN1CCc2c(sc(NC(=O)c3cc4ccccc4o3)c2-c2nc3ccccc3s2)C1	i
CC(=O)c1ccc(N2CCN(C(=O)c3coc(NC(=O)c4cc(C)on4)n3)CC2)cc1	i
COc1c[nH]c(C(=O)Nc2cccc(C(C)=O)c2)cc1=O	i
O=C(C1COc2ccccc2O1)N1CCCC(COCc2ccccc2)C1 (centres undefined)	i
Cc1ccc(N2CCC(C(=O)NC(C)c3ccccc3)CC2)nn1 (centres undefined)	i
COc1ccc(C(C)NC(=O)Cn2c(=O)nc(-c3ccccc3)c3ccccc32)cc1OC (centres undefined)	i
Cc1cc(C(O)CCNC(=O)C(=O)NCc2ccccc2Cl)c(C)o1 (centres undefined)	i
CC(=O)Nc1ccc(S(=O)(=O)N2CCN(c3ccc(C)c(C)c3)CC2)cc1	i
Cc1cc(NC(=O)/C=C/c2ccc3c(c2)OCO3)sn1	i
Cc1cc2oc3c(c(=O)c2cc1C)C(c1ccc(OC(C)C)cc1)N(CCCN(C)C)C3=O (centres undefined)	i
O=C(/C=C/c1ccco1)N1CC(c2nc(-c3cccs3)no2)C1	i
COc1ccc(-c2cn3c(C(=O)N4CCN(C(=O)c5ccco5)CC4)csc3n2)cc1	i
O=C(CSc1nnc2ccccn12)N1CCOCC1	i
O=S(=O)(NCc1cccnc1)C1CC1	i
CCN1CCCc2cc(CCNC(=O)C(=O)Nc3cccc(Cl)c3C)ccc21	i
COc1cccc(C(=O)NCCN2CCN(c3ccccc3)CC2)c1	i
COc1cc(C)c(C)cc1S(=O)(=O)NCC1(CO)CC1	i
CCN1CCCc2cc(CCNC(=O)C(=O)NCc3ccccc3Cl)ccc21	i
CCCCn1c(=O)c2c(nc3n(-c4ccccc4F)c(C)c(C)n23)n(C)c1=O	i
COc1cc(-c2noc(-c3nnn(-c4ccccc4Cl)c3C)n2)cc(OC)c1OC	i
COCCCn1c(C(=O)NC2CCCCC2)cc2c(=O)n3cccc(C)c3nc21	i
Cn1nc(C(=O)Nc2ccc(CC(=O)NCC(F)(F)F)cc2)ccc1=O	i
CCCN1CCCc2cc(CCNC(=O)C(=O)Nc3cc(Cl)ccc3C)ccc21	i
COc1ccc(C(=O)COc2ccc3c(=O)c(-c4ccccc4OC)coc3c2)cc1	i
COc1ccc(NC(=O)Nc2nc3c(Br)cccc3s2)cc1OC	i
COc1ccc(-c2nc(Cn3nnc(C(=O)Nc4ccccc4C)c3N)c(C)o2)cc1OC	i
CCCCC[C@H](O)/C=C/[C@@H]1[C@@H](C/C=C\CCCC(=O)OC)[C@@H](O)C[C@H]1O	i
CC(=O)c1ccc(N2CCN(C(=O)CCCn3c(=S)[nH]c4cc5c(cc4c3=O)OCO5)CC2)cc1	i
O=C(Nc1nccs1)C1COc2ccccc2C1 (centres undefined)	i
COc1ccc(Cc2nnc(N/N=C\c3ccc(C)o3)[nH]c2=O)cc1OC	i
CCc1ccc(N2C(=O)C3N=NN(CC(=O)Nc4ccc(OC)c(OC)c4)C3C2=O)cc1 (centres undefined)	i
Cc1cn2c3c(=O)n(CCCc4ccccc4)c(=O)n(C)c3nc2n1-c1ccccc1O	i
COc1ccc(OC)c(N2CCn3c2nc2c3c(=O)n(CCCO)c(=O)n2C)c1	i
CCCCC/C=C\C/C=C\C/C=C\C/C=C\CCCC(=O)NC[C@]1(C)CCC[C@]2(C)c3ccc(C(C)C)cc3CC[C@@H]12	i
CCOC(=O)N1CCC(NC(=O)CCCn2c(C)ccc2C)CC1	i
CN(C)C(CNC(=O)C(=O)Nc1cccc(N2CCCC2=O)c1)c1cn(C)c2ccccc12 (centres undefined)	i
O=c1ccc(-n2ccnc2)nn1CCNS(=O)(=O)c1ccc(F)c(C(F)(F)F)c1	i
O=C(NCC1CCCO1)c1ccc2c(=O)n(-c3cccc(C(F)(F)F)c3)c(=S)[nH]c2c1 (centres undefined)	i
CCCCC1CCC(c2nc(-c3ccncc3)no2)CC1 (centres undefined)	i

An excerpt, so the mix of outcomes need not match the whole.
